# Bioassay records: PubChem BioAssay, National Center for Advancing Translational Sciences (NCATS)
# CtBP-E1A blk: inhibitors of CtBP/E1A interaction; activity change, % (test concentration not listed); hit rate 0.49% among 340,000; AlphaScreen GST-E1A/His-CtBP binding, 1536-well; stronger effect = lower value; control for the full effect not named in the record; AID 651724; in the data active means activity change below about -65%; inconclusive means about -30% to -65%; inactive means above about -30%; also: % is scaled to controls: 0 for no effect and ±100 for the full control effect; compound concentration not given in the record
#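 Homogeneous bead-based format: GST-tagged E1A captured on glutathione donor beads, His-tagged CtBP on nickel acceptor beads; compounds precede bead addition by 2 h at 37 °C.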
# Six1-Eya2 inh: Six1/Eya2 interaction inhibition; Q15475+O00167; AlphaScreen GST-Six1/His-Eya2 binding, biochemical; stronger effect = lower value; control for the full effect not named in the record; activity change, % (no concentration beside the values); hit rate 0.56% among 360,000; AID 651725; in the data active = activity change below about -65%; inconclusive = about -30% to -65%; inactive = above about -30%; also: % is scaled to controls: 0 for no effect and ±100 for the full control effect; compound concentration not given in the record
# Target sequence (O00167 whole entry, looked up): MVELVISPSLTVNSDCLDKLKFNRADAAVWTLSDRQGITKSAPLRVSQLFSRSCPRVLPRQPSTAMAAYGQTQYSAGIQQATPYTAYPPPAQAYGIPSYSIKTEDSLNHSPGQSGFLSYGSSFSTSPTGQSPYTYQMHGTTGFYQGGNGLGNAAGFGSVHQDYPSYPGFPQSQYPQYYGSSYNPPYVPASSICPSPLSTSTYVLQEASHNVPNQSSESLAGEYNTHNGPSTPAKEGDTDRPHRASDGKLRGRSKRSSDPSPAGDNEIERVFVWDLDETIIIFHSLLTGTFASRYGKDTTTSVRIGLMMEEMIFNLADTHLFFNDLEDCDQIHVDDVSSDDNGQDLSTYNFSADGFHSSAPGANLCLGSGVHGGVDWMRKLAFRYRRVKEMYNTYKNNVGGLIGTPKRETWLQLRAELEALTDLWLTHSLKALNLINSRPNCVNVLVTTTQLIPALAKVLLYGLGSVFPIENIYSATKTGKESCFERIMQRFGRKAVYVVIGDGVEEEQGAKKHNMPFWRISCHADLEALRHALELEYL
# Target sequence (Q15475 whole entry, looked up): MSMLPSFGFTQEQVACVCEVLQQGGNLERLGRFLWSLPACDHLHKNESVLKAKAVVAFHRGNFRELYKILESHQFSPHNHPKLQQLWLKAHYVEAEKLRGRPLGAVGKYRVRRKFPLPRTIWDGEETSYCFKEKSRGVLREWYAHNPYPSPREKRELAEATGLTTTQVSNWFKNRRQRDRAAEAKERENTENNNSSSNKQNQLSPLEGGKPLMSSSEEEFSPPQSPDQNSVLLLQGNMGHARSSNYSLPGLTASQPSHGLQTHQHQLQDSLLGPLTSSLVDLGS
#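 GST-Six1 + His-Eya2 (5X stock: 250/500 nM); Tris pH 8.0, 300 mM NaCl, 0.05% BSA, 0.02% Tween 20; GSH donor/Ni acceptor beads; 1 h 37 °C dark; AlphaScreen readout.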
# D2 ag: activates the human D2 dopamine receptor | AID 624465 | hit rate 0.084% among 360,000 | activation, % (test concentration not listed) | DiscoveRx PathHunter D2 beta-arrestin, luminescence, 90 min; 100% = 57 uM dopamine signal | P14416; in the data active = activation above about 40%; inconclusive = about 15% to 40%; inactive = below about 15%; also: compound concentration not given in the record; the text of the record calls up to 30% inactive
#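 Agonist mode: compounds alone added to overnight-plated D2 PathHunter cells for 90 min at 37 C, with 57 uM final dopamine (EC100) defining full response. Beta-arrestin recruitment detected by chemiluminescent reagent, read after 1 h at ambient temperature.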
# PINK1 expr mod: PINK1 expression modulation. Potency, µM (top dose mostly 76.6 µM), for inactives: top-dose activation (PINK1 increase), most hits filed as activators. PINK1 immunofluorescence, high-content cytometry, 24 h. hit rate 0.2% among 410,000. AID 624263; active = well fitted activation curve with a large enough effect; inconclusive = small, poorly fitted or top-dose-only effect; inactive = flat fitted curve, though single readings scatter; cell line not stated here;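 also: potency is read from the fitted curve at half-maximal effect; % of control where 0% means no effect; nearly all actives have a fitted effect of over 65% in size; a mitochondrial uncoupler was the plate control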
#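 Cells are seeded, rested 12 hours, then given compound at five concentrations or DMSO for 24 hours. After fixation, blocking and antibody staining, PINK1 amount and mitochondrial localization are scored; CCCP serves as control.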
# TRPML1 blocker: blocks the human TRPML1 channel; Q9GZU1; TRPML1-inducible cells, Ca2+ dye fluorescence, FDSS; stronger effect = lower value; inhibition of EC80 agonist-evoked calcium signal; activity change, negative = inhibition, % (test concentration not listed); hit rate 0.02% among 390,000; in the data active means activity change below about -50%; inconclusive means about -30% to -50%; inactive means above about -30%;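 also: stimulus is agonist 54-4 at its EC80 concentration; % is scaled to controls: 0 for no effect and ±100 for the full control effect; compound concentration not given in the record; the text of the record puts the active cut at -80%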
#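 Tet-induced TRPML1-DL cells loaded with Ca8 no-wash calcium dye were read kinetically on FDSS. Compound addition was followed by EC80 agonist 54-4 (4 uM final); inhibition was read over 110 s.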
# TRPML1 agonist: agonists of human TRPML1 channel; Q9GZU1; TRPML1-expressing cells, Ca2+ dye fluorescence, FDSS; host cell line not named in the record; reference of the full effect not given here; activation, % (test concentration not listed); hit rate 0.12% among 410,000; AID 624414; in the data active = activation above about 50%; inconclusive = about 30% to 50%; inactive = below about 30%; also: 0% is about no effect; the text of the record puts the active cut at 80%
#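 Cells: TRPML1-DL, 1X Tet inducer, ~16 h at 37 degrees C/5% CO2. Dye: ABD Ca8 no-wash + quencher, 45-90 min RT. Read: 10 s baseline, compound add, 110 s agonist phase; 54-4 EC80 (4uM final), 110 s antagonist phase.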
# * = called active by the depositor; ? = inconclusive; nt = no result given; & = joins results of further samples; [ ] = dose if it differs, or a comment.
SMILES,CtBP-E1A blk,Six1-Eya2 inh,D2 ag,PINK1 expr mod,TRPML1 blocker,TRPML1 agonist
CCCOc1cc(C)c(S(=O)(=O)NCCOC)cc1C,10.6,3.7,-2.5,3.3%[38.3 µM],-7.7,-0.1
COc1ccc(C(=O)CCC(C)(C)[N+](=O)[O-])cc1,14.5,4.4,1.4,0.2%,-3.7,-1.5
Cc1sc(N=Nc2ccc(N(C)C)cc2)[n+]([O-])c1C,-14.4,?,-6.5,-0.6%,-2.7,-0.4
CC1(C(=O)NCc2ccc(C(F)(F)F)cc2)CCN1Cc1ccc(-c2ccccc2)o1 (stereo not drawn),-2.4,-5.0,-2.2,5.6%,nt,0.6
C1CCN=C(Nc2nc3c(s2)CCCC3)CC1,-5.0,-5.0,-1.5,4.7%[38.3 µM],0.7,0.9
COc1ccccc1NC(=S)N1CCN(c2nc(-c3ccccc3)cs2)CC1,-21.7,-10.1,-3.2,1.7%,-3.0,-1.5
Cc1ccc(N2CN(CCC3=CCCCC3)CNC2=S)cc1,nt,-10.8,-7.8,0.1%,-2.0,-0.5
Cc1c(NC(=O)C(C)OC(=O)c2ccccc2O)c(=O)n(-c2ccccc2)n1C (stereo not drawn),14.0,7.4,-2.8,0.7%,-18.8,-0.3
Cc1ccc(NC(=O)CCC(=O)N/N=C/c2cccs2)cc1,nt,-4.1,-4.6,0.1%,-2.8,1.0
COc1cc(OC)cc(C(=O)NC(C(=O)Nc2ccc(N3CCOCC3)cc2)C(C)C)c1 (stereo not drawn),-4.9,-0.5,0.9,2.2%,10.2,3.3
CCCCCCCCNS(=O)(=O)CCNCc1ccc(OC)cc1,16.6,10.4,-1.0,1.0%,19.9,1.6
COc1ccccc1CNS(=O)(=O)c1cnc(N)nc1,nt,nt,nt,-0.1%,2.7,0.4
O=S(=O)(Nc1cc(S(=O)(=O)N2CCOCC2)ccc1N1CCCC1)c1cccs1,-9.0,4.6,4.1,0.2%,7.7,0.6
CCOC(=O)c1c(C)[nH]c(C)c1S(=O)(=O)NCC(=O)Nc1ccc(C)c(N(C)C)c1,nt,nt,nt,2.1%,-19.3,-0.7
COc1cc2cc(C(=O)N[C@@H](Cc3ccccc3)C(=O)O)n(C)c2c(OC)c1OC,nt,5.3,1.8,0.1%,8.2,1.4
Cc1ccc(-n2[nH]c(C)c(C=Nc3ccc(S(=O)(=O)Nc4nccs4)cc3)c2=O)cc1C,4.1,?,-5.1,2.6%,4.8,0.6
O=C1NC(c2ccccc2)Nc2c1sc(=S)n2-c1ccccc1 (stereo not drawn),nt,-4.2,-2.1,-0.5%,36.4,-0.4
Cc1ccc(OCCCCCCN2CCNCC2)cc1,-12.4,-3.4,0.4,2.1%,16.5,1.3
COc1ccccc1CNC(=O)/C=C/c1cc2c(cc1Br)OCO2,3.8,-10.0,-3.1,26.5%,2.9,2.6
CCCCC(=O)N(C)c1c(C)nc2ccc(C(=O)N3CCNC(=O)C3)cn12,-3.7,-2.6,-4.1,1.4%,nt,-0.7
CCOCCCNc1nc2c(c(=O)[nH]c(=O)n2C)n1CCCc1ccccc1,3.9,-2.0,-1.8,1.4%,12.5,-0.1
CC(C)Oc1cc2oc(=O)c3c(c2cc1Cl)CCC3,-0.4,11.9,-1.1,-1.3%,26.6,-0.4
Fc1ccc(CNc2nc(-c3ccccc3)cc(C(F)(F)F)n2)cc1,nt,nt,nt,?,-13.1,1.0
CC(C)Sc1nnc([C@H](Cc2c[nH]c3ccccc23)NC(=O)OC(C)(C)C)o1,-0.8,-5.6,2.0,-1.8%,12.0,-1.2
CCC(C)NC(=O)Cn1cnc2sc(C)cc2c1=O (stereo not drawn),-0.7,12.0,-5.2,-2.0%,-3.0,0.6
Cc1nn(Cc2ccc(F)cc2)c(C)c1NC(=O)c1noc2c1CCc1ccccc1-2,-1.3,-5.7,3.0,1.1%&9.0%,-3.1&-2.6,2.2&-0.8
COc1ccc(C2SCC(=O)N2c2ccc(C)cc2)cc1 (stereo not drawn),1.9,2.7,-2.1,-0.2%,-20.6,1.3
N#Cc1cc2ccc(N3CCOCC3)cc2cc1C#N,2.2,7.8,13.3,-0.7%[38.3 µM],-14.3,-0.1
Cn1nccc1C(=O)Nc1sc2c(c1C(N)=O)CCCC2,-16.6,-11.5,-0.8,0.8%,-2.8,3.3
CC(C)OC(=O)Cc1nc2sc(-c3ccccc3)cc2c(=O)[nH]1,-15.1,-5.3,-0.3,0.2%,-16.7,0.9
CC(=O)c1ccc(N2Cc3ccccc3/C2=N\C(=O)Nc2ccc(Cl)cc2)cc1,1.4,2.2,-2.3,12.9%,41.2,4.1
Cc1ccc(F)c(S(=O)(=O)NC(=O)C2(C)CCN2C(=O)Cc2ccc(Cl)cc2Cl)c1 (stereo not drawn),7.0,8.1,2.5,0.1%,nt,-0.1
Cc1oc(-c2cccc(Cl)c2)nc1CN1CCC(C(=O)N2CCN(c3ccccc3F)CC2)CC1,-29.2,-18.9,-1.8,-1.2%,-17.9,-0.3
COc1cccc(-n2c(COc3ccc(C)cc3)nnc2SCC(=O)O)c1,6.5,-3.2,0.0,-0.1%[38.3 µM],2.1,-0.3
N#CCOc1ccccc1/C=C/c1nc2ccccc2c(=O)[nH]1,-6.9,0.7,-1.6,3.4%,-0.5,-0.5
O=C(O)c1ccc(Cn2cnc3scc(-c4ccccc4)c3c2=O)cc1,-0.5,-4.6,2.2,-1.6%,4.3,-0.7
O=C(c1ccccc1-c1nc(-c2ccccc2)no1)N1CCOCC1,8.4,-4.0,-2.1,4.9%[38.3 µM],11.5,0.0
O=C1/C(=C/c2ccncc2)N=C2CCCCCN12,2.1,8.2,-3.1,0.9%,-5.1,-0.7
COc1ccc(NC(=O)CSc2nnc(C3CC3)n2-c2ccccc2)cc1,4.6,-2.5,-1.5,2.8%[38.3 µM],19.3,-0.2
O=C(COC(=O)CNS(=O)(=O)/C=C/c1ccccc1)Nc1cc(S(=O)(=O)N2CCCCC2)ccc1Cl,?,-4.9,-3.6,0.1%,9.4,2.3
CNc1ccccc1C(=O)OC(C)C(=O)Nc1ccc(S(=O)(=O)N2CCCC2)cc1 (stereo not drawn),10.0,6.2,-2.1,-0.8%,-0.4,-0.4
CCCc1cc(=O)[nH]c(SCC(=O)N(C)C2CCS(=O)(=O)C2)n1 (stereo not drawn),-1.7,-2.9,-1.3,-1.0%,0.1,0.5
O=C(COc1ccc(S(=O)(=O)NC2CCCCC2)cc1Cl)NCc1ccc2c(c1)OCO2,-2.6,-2.6,-0.6,-2.5%[38.3 µM],-12.0,1.2
CCN(CC)C(=O)CSc1nnc(CNc2ccc(F)cc2)n1-c1ccccc1,-0.9,1.5,-0.1,-0.5%[38.3 µM],-17.1,1.5
Cc1cc(-c2nnn(CCCOC(C)(C)C)c2C)ccc1-c1cn(CCCOC(C)(C)C)nn1,6.2,3.9,-5.3,0.3%,-15.9,0.1
CCOC1(NC(=O)c2ccccc2)C(C)=CC(=O)C=C1C,7.1,2.1,-3.0,-3.0%,5.0,-0.8
O=C(NCC1CCCO1)C1CCC(N2C(=O)c3ccccc3C2=O)CC1 (stereo not drawn),-9.8,-3.6,-3.5,nt,5.8,0.5
COc1ccc(CN(C)C(=O)Cn2cnc3c(SC)nc(N)nc32)cc1OC,4.8,0.5,-3.2,2.3%,-13.3,-0.2

# Some of the entries above, set out differently:
Molecule | CtBP-E1A blk | Six1-Eya2 inh | D2 ag | PINK1 expr mod | TRPML1 blocker | TRPML1 agonist
CC(=O)c1ccc(N2Cc3ccccc3/C2=N\C(=O)Nc2ccc(Cl)cc2)cc1 | 1.4 | 2.2 | -2.3 | 12.9% | 41.2 | 4.1
Cc1ccc(F)c(S(=O)(=O)NC(=O)C2(C)CCN2C(=O)Cc2ccc(Cl)cc2Cl)c1 (stereo not drawn) | 7.0 | 8.1 | 2.5 | 0.1% | nt | -0.1
Cc1oc(-c2cccc(Cl)c2)nc1CN1CCC(C(=O)N2CCN(c3ccccc3F)CC2)CC1 | -29.2 | -18.9 | -1.8 | -1.2% | -17.9 | -0.3
COc1cccc(-n2c(COc3ccc(C)cc3)nnc2SCC(=O)O)c1 | 6.5 | -3.2 | 0.0 | -0.1%[38.3 µM] | 2.1 | -0.3
N#CCOc1ccccc1/C=C/c1nc2ccccc2c(=O)[nH]1 | -6.9 | 0.7 | -1.6 | 3.4% | -0.5 | -0.5

# The results go on:
SMILES,CtBP-E1A blk,Six1-Eya2 inh,D2 ag,PINK1 expr mod,TRPML1 blocker,TRPML1 agonist
CCCCCCCCC(=O)NCCOc1ccc(OC)cc1,7.8,3.2,-5.0,3.3%,9.2,3.5
Cc1ccc(CNC(=O)CSc2ncc3c(n2)-c2ccc(Cl)cc2N(Cc2ccccc2)S3(=O)=O)cc1,nt,nt,nt,0.5%,-1.8,-0.4
COc1ccc(OC)c(CNC(=O)c2ccc(C)c(NC(=O)c3nsc4ccccc34)c2)c1,nt,nt,nt,0.6%,-19.1,1.3
Cc1nc2ccc(S(=O)(=O)NCC(=O)Nc3cccc(F)c3)cc2s1,nt,0.6,-4.3,0.4%,-0.2,1.1
CCOC(=O)NC1(C(F)(F)F)NC(=O)N(c2ccc(C)c(C)c2)C1=O (stereo not drawn),nt,nt,nt,0.9%,0.8,1.1
COc1cc(OC)cc(C(=O)NNC(=O)c2cc3c(s2)CCCC3)c1,nt,0.2,-4.1,13.7%,-5.3,0.5
NCC(O)CN(c1ccccc1)c1ccccc1 (stereo not drawn),3.7,1.9,-5.9,-1.0%,-9.5,2.0
COc1ccc(-c2csc(NC(=O)Cc3cc(OC)c(OC)c(OC)c3)n2)cc1OC,0.0,-25.9,-2.6,3.7%,-0.3,1.1
COc1ccccc1N1N=C(C(=O)c2ccccc2)C2C(=O)N(c3ccc(Br)cc3)C(=O)C21 (stereo not drawn),12.9,31.2,-4.5,-0.9%,-8.4,0.6
Cc1nn(C2CCS(=O)(=O)C2)c(C)c1CN(C)C(=O)c1ccc(Cl)cc1 (stereo not drawn),-16.2,-0.5,-6.1,-0.9%,-6.6,0.0
O=c1n(Cc2ccccc2)c(O)c2n1Cc1ccccc1N=C2c1ccccc1,-3.5,-7.0,-1.7,3.8%,nt,-0.5
O=C(NCC1CCCO1)c1ccc(Cl)c(S(=O)(=O)Nc2ccccc2)c1 (stereo not drawn),-14.9,16.5,-1.8,0.4%,-6.1,-0.1
Cc1ccccc1C1c2[nH]c3ccccc3c2CCN1Cc1cccn1-c1ncccn1 (stereo not drawn),nt,-17.7,1.9,?,7.2,0.9
O=C(CNC(=O)c1ccc(Cl)cc1Cl)OCc1nnc(-c2ccccc2)o1,4.5,3.2,7.7,2.0%,-4.1,-0.8
COc1cc2c(cc1NC(=O)COC(=O)/C=C/c1ccccc1)oc1ccccc12,-1.2,0.4,-3.1,-1.2%,12.0,-0.3
COc1c(C)cc(C(O)c2ncc(-c3ccccc3F)[nH]2)cc1C (stereo not drawn),15.0,8.5,0.8,7.9%,nt,-0.5
CCN(CC)CCCn1c2c(c(SCC(=O)Nc3ccc4c(c3)OCCO4)nc1=O)CCC2,6.2,0.5,-4.5,-1.7%,1.2,-0.3
CCCSc1nsc(SCCC)c1C#N,42.8,107.2,1.9,3.3%,-10.4,1.2
